High-throughput results from PubChem BioAssay.
Vif TR-FRET: HIV-1 Vif–A3G interaction blockers – biochemical, TR-FRET, GST-Vif 1-94, biotin-A3G peptide, dose response retest, primary screen (AID 1117319). TR-FRET GST-Vif / biotin-A3G peptide binding; higher % means a stronger effect; test concentration not given here; strong numbers were not always called active. inhibition, %, or IC50 in µM where a hit was titrated. hit rate 0.57% among 260,000;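 active means above the screen mean plus three standard deviations and confirmed in dose response; inconclusive means results disagree or hit not tested in dose response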;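 further: Vif residues 1-94 fused to GST binding biotinylated APOBEC3G peptide 110-148; 0% = full assay without inhibitor and 100% = GST in place of GST-Vif; retest series ran down from 100 µM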
Calb FLC: affects C. albicans growth with fluconazole | C. albicans CaCi-2 (fluconazole-resistant clinical isolate) + fluconazole, Alamar Blue growth, 48 h | growth inhibition, % (concentration not given with the values) | hit rate 0.57% among 300,000;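 active means most replicates above 75%; inconclusive means exactly half above 75%; inactive means most below 75%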;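 further: all wells also contain fluconazole at 8 µg/ml as a sub-toxic cotreatment; 0% = median of DMSO wells and 100% = median of geldanamycin control wells; wells of about 8 µL received 7.5 nL stock; the first replicate is given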
RanGTP-Imp inh: disruptors of Ran-importin-beta complex formation – biochemical, FRET, CFP-Ran, YFP-importin-beta, homogeneous, primary screen | cell-free CFP-Ran/YFP-importin-beta FRET ratio | inhibition, % (no concentration beside the values) | hit rate 1.1% among 300,000 | AID 2216;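 active means most replicates above 15%; inconclusive means exactly half above 15%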;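 further: 0% = DMSO wells and 100% = Ran loaded with GDP instead of GTP; wells of about 40 µL received 100 nL stock; the first replicate is given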
A1 inh: inhibitors of the anti-apoptotic protein A1, read as caspase activation; MEF A1-2A-BIM cells, Caspase-Glo 3/7 luminescence, 3 h; percent of clofoctol response, vehicle zero; caspase activation, % (concentration not given with the values); hit rate 0.066% among 330,000; AID 2462;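 active means over half of replicate activation scores above 10%, or exactly half above 10 with the replicate mean above 10; inconclusive means replicate mean below 10 yet half the replicates above 10; inactive means over half of replicates below 10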;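 further: wells of about 30 µL received 50 nL stock; many hits fall short of the cut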
Beta apoptosis: blocks beta cell apoptosis; INS-1E cytokine-induced death, ATP luminescence, 48 h; percent of positive-control rescue, neutral wells zero; protection from apoptosis, % (no concentration beside the values); AID 435005; hit rate 0.8% among 300,000;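 active means all replicates at 75% or more, or half of them and the mean; inconclusive means half reach 75% but not the mean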;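 further: 0% = cytokine-treated negative control wells and 100% = positive control rescue; higher means more ATP so stronger rescue from cytokine killing; wells of about 40 µL received 100 nL stock; the first replicate is given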
AF4-AF9 inh: blocks AF4 peptide binding to human AF9. P42568. AlphaScreen, biotin-AF4 peptide binding to FLAG-AF9. inhibition, % at 10 µM. hit rate 0.47% among 350,000. AID 651704;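 active means every replicate reaching a set inhibition limit, whatever the replicate mean, cut at about 25% in these data; inconclusive means mean inhibition reaches that limit but some replicates miss it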;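 further: 0% = plate neutral control median and 100% = total signal loss; the record names both 10 and 1 µM as test concentration; the first replicate is given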
LANA-H2B inh: blocks KSHV LANA binding to histone H2A/H2B | hit rate 0.6% among 320,000 | AID 2629 | cell-free LANA-H2A/H2B peptide, fluorescence polarization | Q9QR71 | inhibition, % (concentration not given with the values); in the data active means inhibition mostly above about 10%, no sharp cut-off; inactive means mostly below about 6.7%;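 further: stock transfer was 7.5 nL into about 10 µL; 0% = median of vehicle wells and 100% = median of positive control wells; one replicate is shown; the record names a cut of 25% in any replicate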
Target sequence (Q9QR71 whole entry, looked up): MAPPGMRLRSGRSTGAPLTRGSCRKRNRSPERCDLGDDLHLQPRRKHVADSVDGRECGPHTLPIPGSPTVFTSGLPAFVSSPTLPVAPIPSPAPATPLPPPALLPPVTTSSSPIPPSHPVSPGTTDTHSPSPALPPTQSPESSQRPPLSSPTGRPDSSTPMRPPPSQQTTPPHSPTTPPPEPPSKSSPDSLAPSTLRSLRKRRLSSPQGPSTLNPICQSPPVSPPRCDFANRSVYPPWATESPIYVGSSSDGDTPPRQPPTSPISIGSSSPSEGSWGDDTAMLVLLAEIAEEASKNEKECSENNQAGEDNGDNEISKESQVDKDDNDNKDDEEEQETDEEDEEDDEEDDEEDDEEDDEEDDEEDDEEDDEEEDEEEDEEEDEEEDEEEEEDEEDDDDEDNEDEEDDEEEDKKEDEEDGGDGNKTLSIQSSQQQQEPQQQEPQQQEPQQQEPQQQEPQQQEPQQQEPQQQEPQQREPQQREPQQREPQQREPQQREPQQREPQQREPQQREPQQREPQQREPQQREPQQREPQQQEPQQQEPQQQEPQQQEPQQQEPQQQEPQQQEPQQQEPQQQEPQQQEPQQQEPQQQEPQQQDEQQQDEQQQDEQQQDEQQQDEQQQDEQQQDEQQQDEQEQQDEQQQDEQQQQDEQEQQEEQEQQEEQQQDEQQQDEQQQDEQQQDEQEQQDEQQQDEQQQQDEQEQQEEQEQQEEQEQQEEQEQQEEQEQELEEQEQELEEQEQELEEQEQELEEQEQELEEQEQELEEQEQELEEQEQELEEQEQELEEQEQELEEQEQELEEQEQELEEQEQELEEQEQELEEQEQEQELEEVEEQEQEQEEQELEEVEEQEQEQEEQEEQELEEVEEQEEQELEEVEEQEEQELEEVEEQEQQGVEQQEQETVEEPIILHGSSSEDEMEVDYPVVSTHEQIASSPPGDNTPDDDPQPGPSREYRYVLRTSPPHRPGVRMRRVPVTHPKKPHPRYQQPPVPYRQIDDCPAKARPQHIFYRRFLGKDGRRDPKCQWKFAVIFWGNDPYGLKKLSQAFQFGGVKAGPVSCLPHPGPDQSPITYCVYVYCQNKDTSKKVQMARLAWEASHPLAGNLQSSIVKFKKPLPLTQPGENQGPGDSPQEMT
T cruzi inh: T. cruzi replication inhibition; T. cruzi beta-gal in NIH3T3, luminescence, 90 h; inhibition, % (no concentration beside the values); hit rate 1.4% among 300,000; AID 1885;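 active means mean inhibition across valid replicates above about 55%, limit read from the data; inconclusive means mean below that limit but half or more replicates reach it; inactive means mean below it, under half of replicates reach it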;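 further: signal also drops with host cell toxicity which is not excluded here; 0% = plate median of DMSO wells and 100% = zero luminescence signal; higher percent means less beta-gal luminescence so fewer parasites; stock transfer was 50 nL into about 50 µL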
Starred values were filed as active, the others as inactive; ? = inconclusive; . = no result given; & = joins results of further samples.

SMILES	Vif TR-FRET	Calb FLC	RanGTP-Imp inh	A1 inh	Beta apoptosis	AF4-AF9 inh	LANA-H2B inh	T cruzi inh
CCOc1ccccc1CN1C(=O)c2ccccc2C1C(=O)NCC1CCCO1 (stereo not drawn)	-5%	0	0.8	0.9	-2	.	2.0	11
O=c1cc(N2CCN(Cc3ccccc3)CC2)[nH]c(=O)n1-c1ccc(Br)cc1	1%	-2	31*	0.9	.	-2.5	5.4	-10
COc1cccc(C2C(C(=O)c3cc4ccccc4o3)=C(O)C(=O)N2CCN2CCOCC2)c1 (stereo not drawn)	.	20	3.0	0.1	-1	1.9	3.1	-28
CCOC(=O)c1nnn(CC(=O)Nc2cccc(Cl)c2C)c1C(=O)OCC	-5%	-5	7.2	0.8	-7	.	2.0	-7
Cc1ccc(S(=O)(=O)NCCCN2CCOCC2)cc1C	22%	-1	9.0	0.1	1	.	-8.1	-12
CSc1ccccc1NC(=O)CCn1c(=O)sc2ccccc21	-1%	30	2.8	3.1	-3	.	-0.6	-3
CCOc1cc(C)c(S(=O)(=O)Nc2ccc3cn[nH]c3c2)cc1C	1%	4	-1.6	-0.2	89*	.	6.5	?
O=C(Nc1ccnn1C1CCN(Cc2ccc3nonc3c2)CC1)c1cccc(F)c1	-5%	-20	3.4	1.0	2	5.4	-0.9	10
Cc1nnc(SCC(=O)Nc2ccccc2F)n(N)c1=O	-8%	-6	4.2	0.3	-5	-3.9	-1.8	5
CCc1nnc(NC(=O)CCC(=O)Nc2ccc(C)cc2)s1	.	1	6.8	0.9	-7	-1.0	-3.3	6
C1=C(CCNc2ncnc3c2cnn3-c2ccccc2)CCCC1	-3%&-2%	19	3.7	-0.6	8	.	1.3	24
Cc1cccc(OCCOC(=O)C2CCN(S(=O)(=O)c3ccc(C)c(C)c3)CC2)c1	.	5	2.9	1.0	-11	-2.8	-4.8	0
CCOC(=O)c1[nH]c(C)c(C(=O)NCCCN2CCOCC2)c1C	6%	7	-4.2	0.9	-3	.	-8.5	-6
COc1ccc(CNC(=O)C2CCCN(S(=O)(=O)c3c(C)n[nH]c3C)C2)cc1 (stereo not drawn)	7%	2	2.1	-0.1	-26	.	3.9	-2
CC(=O)Nc1c(C)nn(-c2ccc(C)c(C)c2)c1C	-4%	-4	2.6	-0.5	-5	.	6.3	-15
COc1cccc(C(=O)N/N=C2/SCC(=O)N2CCc2ccc(OC)c(OC)c2)c1	4%	7	-5.2	0.7	4	.	-2.7	1
COc1ccc(N(CC(O)CN2CCOCC2)S(=O)(=O)c2ccc(C)cc2)cc1 (stereo not drawn)	.	5	-0.2	0.2	1	3.8	0.1	-11
CC1(C)CC(c2csc(N)n2)CCO1 (stereo not drawn)	-9%	6	?	1.0	3	-6.9	-13	8
Cc1ccn(Cc2n[nH]c(=S)n2Cc2ccccc2)n1	3%	-13	1.3	-1.0	-2	.	-0.3	9
COC(=O)[C@]12C(=O)NC[C@H](CN1c1ccc(Cl)c(C)c1)N2C	.	.	.	0.1	-8	-0.4	1.2	.
COc1ccccc1-c1c(C(F)(F)F)oc2cc(OC(=O)c3ccccc3[N+](=O)[O-])ccc2c1=O	3%	-6	5.9	0.7	23	.	-2.2	-6
CCOc1ccc(/C=N/NC(=O)CCC(=O)Nc2ccc(F)cc2)cc1	-8%	1	-0.2	1.3	-1	-2.1	-0.5	-5
C/C(=N/NC(=O)c1ccc(C)s1)c1cccnc1	5%	0	0.4	1.3	-3	1.4	3.0	13
Cc1ccc(OCc2ccc(C(=O)NNC(=S)NCC3CCCO3)o2)c([N+](=O)[O-])c1 (stereo not drawn)	5%	-1	3.3	0.4	-2	0.3	1.5	-21
CCOc1ccc(CCNC(=O)COC(=O)/C=C/c2ccc(OCC#N)c(OC)c2)cc1OCC	1%	-2	1.1	1.4	-10	-0.9	5.4	-4
Next part:
SMILES	Vif TR-FRET	Calb FLC	RanGTP-Imp inh	A1 inh	Beta apoptosis	AF4-AF9 inh	LANA-H2B inh	T cruzi inh
O=C(COc1ccc2c3c(c(=O)oc2c1)CCCC3)N1CCN(c2ccccc2)CC1	.	?	1.3	0.1	-1	2.2	4.6	10
COC(C[C@H]1O[C@@H]1C(=O)[C@H](C)OCc1ccccc1)OC	.	11	3.9	-0.6	-9	.	0.6	-7
Cn1c(N)c(C(=O)CSc2ccccn2)c(=O)n(C)c1=O	-3%	3	-0.2	1.5	-3	.	0.6	-3
C/C(=N/OC(=O)c1ccc(C(F)(F)F)cc1)c1oc(C)nc1C	.	-1	2.2	-0.1	-6	0.3	-1.6	-4
CCCn1c(N)c(N(C)C)c(=O)n(CC(=O)Nc2ccc(OC(F)(F)F)cc2)c1=O	22%	1	7.6	-1.2	-1	.	0.4	1
CC(C)c1[nH]nc2c1C1(CCN(Cc3ccccc3)CC1)C(C#N)=C(N)O2	6%	-10	21*	0.4	3	.	0.9	-4
COC(=O)COc1ccc(S(=O)(=O)Nc2ccc(NC(C)=O)cc2)cc1C	3%	-9	-2.6	?	6	.	-5.1	4
CC(C)CN1CN(S(=O)(=O)c2cccs2)c2nc3ccccc3nc21	23%	6	3.4	.	.	.	.	12
COc1ccccc1NC(=O)c1cc(C(=O)Nc2ccccc2OC)n(C)n1	.	5	0.9	-0.3	.	-2.4	-2.0	4
Nc1ccc(N2CCN(C(=O)c3ccco3)CC2)cc1	25%	-7	0.1	0.6	13	.	-2.2	22
O=S(=O)(c1ccccc1)N(CC(O)CN1CCCC1)c1ccccc1 (stereo not drawn)	.	-6	8.3	0.1	-5	3.8	0.9	2
CCOC(=O)c1csc(NC(=O)c2cccs2)n1	4%	10	2.3	-0.3	4	-3.1	-1.9	14
COc1cccc(Nc2ncnc3c2cnn3C)c1	6%	-30	-2.9	-1.4	0	-1.0	-0.9	-6
O=C(CN1CCC(c2nc3ccccc3s2)CC1)NCc1ccccc1	.	-3	0.5	-1.5	2	.	0.3	64*
O=C(CNC(=O)c1ccccc1O)N/N=C/c1ccccn1	-9%	3	0.9	-0.6	8	-1.9	-1.0	-10
Cc1ccc(NCc2nnc(SCC(=O)OC3CCCCC3)o2)c(C)c1	-1%	-14	0.0	0.8	.	.	3.8	-8
CC(C)c1ccc(CNNC(=O)c2ccccc2)cc1	5%	3	0.3	-2.0	4	0.8	0.6	-1
COc1ccc(-n2c(=O)cc(N3CC(C)OC(C)C3)[nH]c2=O)cc1 (stereo not drawn)	?	?	-16	-0.1	-1	.	-0.5	-13
CCOC(=O)[C@H]1[C@H]2COc3ccccc3[C@@H]2N2C(=O)CN(CC3CCCO3)C(=O)[C@@]12C (stereo partly drawn)	.	.	.	1.5	1	1.6	-3.6	.
C=CCn1c(C)cc(C2=NNC(=NCC)SC2)c1C	?	.	.	-7.2	0	15	-3.5	26
CC(=O)Nc1ccc(N2CCN(Cc3ccccc3)CC2)cc1	-5%	-18	3.2	0.5	-1	-2.0	-2.2	-6
O=S(=O)(c1ccccc1)c1nc(-c2ccco2)oc1NCCN1CCOCC1	0%	19	0.6	-0.4	-2	5.0	-2.8	-11
O=C1CC(c2cc(-c3ccccc3)no2)C1	.	-7	8.1	0.1	-3	0.8	-1.3	-16
Cc1c(C(=O)O)sc2ncn(C)c(=O)c12	-5%	6	-5.4	0.4	-5	.	-0.8	-13
CCOC(=O)c1c(C)c(C(=O)NCc2ccccn2)c(C)n1CC	-1%	?	-7.1	0.4	-8	-1.6	-5.3	-3
Next part:
SMILES	Vif TR-FRET	Calb FLC	RanGTP-Imp inh	A1 inh	Beta apoptosis	AF4-AF9 inh	LANA-H2B inh	T cruzi inh
CCN(CC(=O)N1CCN(Cc2ccccc2)CC1)S(=O)(=O)c1ccccc1	-1%	-9	10	-0.3	2	-0.4	5.5	0
CCCn1cnc2c(c1=O)c1nc3ccccc3nc1n2CCc1ccccc1	5%	4	2.4	-0.6	.	.	7.3	20
NC(=O)NCCCC(=O)OCC(=O)c1ccc2ccccc2c1	-5%	-17	6.1	-0.8	-6	-1.5	0.0	4
COc1ccc(C2SCCN2C(=O)c2ccc([N+](=O)[O-])cc2)cc1 (stereo not drawn)	0%	-17	-0.5	-0.9	.	2.2	6.2	15
COc1ccc(-n2c(C)nn(C)c2=O)c(OC)c1	3%	-5	-2.5	-0.7	-5	.	-1.3	-8
COc1ccc(CNC(=O)CSc2nc3ccc(N)cc3s2)cc1	32%	-81	?	2.3	1	.	-2.6	-4
CC(C)C(=O)N=C1SC2CS(=O)(=O)CC2N1Cc1ccc(Cl)cc1 (stereo not drawn)	20%	13	-0.6	0.3	-1	0.6	-2.4	-15
Cc1c2c(nc3ccccc13)CC(C)(C)CC2=O	15%	3	3.4	-0.4	-4	2.2	0.2	1
O=C1COc2ccc(C(=O)COC(=O)c3ccccn3)cc2N1	1%	0	8.7	0.4	-3	-2.6	3.3	-11
CC(=O)N1CCN(CC(=O)Nc2ccccc2Sc2ccccc2)CC1	.	1	-1.3	0.0	.	.	1.5	1
COc1ccc(C(=O)CCNc2ccc3c(c2)OCCO3)cc1	-6%	-8	-1.5	-0.7	-9	-0.2	-3.4	.
O=C1COc2ccc(C(=O)c3ccccc3)cc2CN1	-2%	2	3.3	1.4	3	.	-0.1	1
CC1CCCC(NC(=O)Nc2cccs2)C1C (stereo not drawn)	-3%	-8	1.2	0.2	-9	.	-4.9	-8
COC(=O)N/N=C/c1cn(CCCOc2ccc(C)cc2)c2ccccc12	.	-9	-0.2	0.1	-3	.	-9.0	11
Cc1sc2nc(CN(Cc3cccs3)C(=O)C3CC3)[nH]c(=O)c2c1C	25%	-5	4.4	0.1	8	.	-1.2	-18
CS(=O)(=O)Nc1ccc(C2=NN(C(=O)c3ccco3)C(c3ccco3)C2)cc1 (stereo not drawn)	-3%	22	2.1	1.1	-4	4.8	3.0	12
Cc1nn(-c2ccc(F)cc2)c2c1cc(C#N)c1nc3ccccc3n12	2%	1	-2.2	0.2	2	.	-1.0	-7
COc1ccccc1NC(=O)Nc1ccnn1C1CCN(C(=O)c2ccccn2)CC1	.	4	-2.8	1.5	-2	-1.2	2.2	-3
COC(=O)[C@@H]1[C@@H](C)OC(=O)N[C@H]1c1ccccc1	10%	1	-2.4	-0.8	-5	-0.7	1.3	-15
O=C1NN(c2ccc(F)cc2)C(=O)/C1=C\C=C\c1ccco1	?	-33	-0.2	-0.8	2	.	1.2	6
CN(C1CCCCC1)S(=O)(=O)c1ccc(Cl)c(C(=O)O)c1	10%	-5	-15	-0.3	1	.	5.7	-4
CC(C)C(=O)NC(NCC1CCCO1)C(Cl)(Cl)Cl (stereo not drawn)	6%	-1	-3.4	-0.3	-9	.	0.3	8
CCNc1nc(SCCOc2ccc(Br)cc2)nc(N(C)C)n1	-15%	9	1.6	0.0	2	-3.8	1.5	34
CCC1CCCCN1C(=O)/C=C/c1ccc2c(c1)OCO2 (stereo not drawn)	.	-44	3.5	-0.7	.	-6.1	-2.9	-13
COC(=O)CCc1sc(NC2CCCCC2)nc1-c1ccc(OC)cc1	3%	5	-1.3	2.1	.	.	0.8	-3
CC(C)(C)n1ncc2c(=O)n(CC(=O)NC3CCCCC3)cnc21	-4%	-2	-3.4	0.1	-3	.	-6.1	20
O=C(NCCNC(=O)c1ccccn1)c1cccc(F)c1	.	18	0.8	0.2	2	0.0	-1.7	-7

Compounds as they come, and some 4.3% of all compounds hit somewhere here.
